VDR inhibitor – vitamin D3 receptor (human) inhibition. actives 0.93% (n = 400,000). AID 504847. VDR-SRC2-3 peptide fluorescence polarization, 2 h. Potency, µM, for inactives: max response, negative = inhibition, most hits filed as inhibitors; active = well fitted inhibition curve with a large enough effect; inconclusive = small, poorly fitted or top-dose-only effect, or another doubt; inactive = no such curve, though single readings can be large or run the other way; note: series mostly up to about 120 µM
Target sequence (P11473 whole entry, looked up): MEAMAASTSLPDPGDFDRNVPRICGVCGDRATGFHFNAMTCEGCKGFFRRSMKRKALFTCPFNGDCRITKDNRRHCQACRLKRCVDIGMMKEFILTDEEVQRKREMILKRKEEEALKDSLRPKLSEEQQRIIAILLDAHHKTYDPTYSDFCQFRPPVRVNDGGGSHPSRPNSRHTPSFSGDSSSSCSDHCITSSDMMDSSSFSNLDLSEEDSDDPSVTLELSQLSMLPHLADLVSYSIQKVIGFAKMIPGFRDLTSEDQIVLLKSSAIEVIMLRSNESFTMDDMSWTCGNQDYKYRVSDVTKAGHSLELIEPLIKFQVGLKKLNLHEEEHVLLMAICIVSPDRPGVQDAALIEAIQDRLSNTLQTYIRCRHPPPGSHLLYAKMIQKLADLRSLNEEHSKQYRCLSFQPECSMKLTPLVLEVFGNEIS
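Fluorescence polarization assay measuring small-molecule disruption of VDR binding to the coregulator peptide SRC2-3. Compounds were pin-transferred (23 nl) into the reagent mix and incubated 2 h at room temperature before reading.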
An asterisk follows results filed as active; ? = inconclusive; & = joins results of further samples. % is set by controls: 0 for no effect and ±100 for the full control effect; potency is the fitted concentration of half-maximal effect. A portion of the library, so the mix of outcomes need not match the whole.

SMILES	VDR inhibitor
O=[N+]([O-])c1ccc(/C=N\NS(=O)(=O)c2ccc(F)cc2)o1	-29%
Cc1sc2nc(CN3CCOCC3)nc(N3CCC(C(N)=O)CC3)c2c1C	7%
COc1ccc2c(c1OC)C(=O)NC(C)=C(C(=O)OC(C)(C)C)C2O (configuration not stated)	-5%
Cc1cc(C)cc(NC(=O)Cn2nnc(C(=O)NCc3ccccc3Cl)c2N)c1	7%&-6%
CCn1c(Cc2ccccc2)nnc1SCC(=O)N1CCCC1=O	4%
COc1ccccc1NC(=O)COc1ccc(/C=N/NC(=O)CSCc2cc(C)cc(C)c2)cc1	-16%
CCOC(=O)c1ccc(-c2ccc(/C=N/NC(=O)CN(c3ccccc3Br)S(C)(=O)=O)o2)cc1	-12%
COc1ccc(C(=O)Nn2c(CC(C)C)nc3cc(Cl)ccc3c2=O)c(OC)c1	-3%
COc1ccc(NC(=O)CSc2c3c(nc4ccccc24)CCC3)cc1Cl	-16%
O=C1C2C3C=CC(C3)C2C(=O)N1c1nc2ccccc2s1 (configuration not stated)	21%

Brought forward from above: 2 compounds, followed by the next part.
SMILES	VDR inhibitor
COc1ccc(NC(=O)CSc2c3c(nc4ccccc24)CCC3)cc1Cl	-16%
O=C1C2C3C=CC(C3)C2C(=O)N1c1nc2ccccc2s1 (configuration not stated)	21%
COc1ccc(-n2c(=O)c3c4c(sc3n(Cc3ccc(F)cc3)c2=O)CN(C(C)=O)CC4)c(OC)c1	3%
COc1ccccc1NC(=O)OC(C)c1ccc(Cl)cc1 (configuration not stated)	0%
CCCOc1ccc(C2c3c(-c4ccccc4O)n[nH]c3C(=O)N2Cc2ccncc2)cc1OCC (configuration not stated)	3%
CCN1C(=O)c2c(C)nc3ccccc3c2C1=O	19%
C[N+](C)(C)CC[N+]1(C)Cc2c(Cl)c(Cl)c(Cl)c(Cl)c2C1	-8%&16%
O=C(CSc1ncnc2ccccc12)N1CCNC1=O	3%
Cc1ccc2cccc(NC(=O)c3ccc(-c4cc(Cl)ccc4Cl)o3)c2n1	-8%
CSCCC(NS(=O)(=O)c1ccc(C)cc1)C(=O)NC1CCCCCC1 (configuration not stated)	5%
CCOC(=O)C(C)On1c(SC(C)C(=O)OCC)nc2ccccc2c1=O (configuration not stated)	4%
CC1CCc2sc(C(=O)NCCCn3ccnc3)cc2C1 (configuration not stated)	-29%
Cc1ccc(-c2cnc(C3CC3)o2)cc1S(=O)(=O)Nc1cccc(C#N)c1	4%
CCOc1ccc(NC(=O)CN(C)S(=O)(=O)c2cccc3cccnc23)cc1	11%
COC(=O)C1C(=O)OC(C)(C)C1C(C)C(=O)c1ccc(C)cc1C (configuration not stated)	10%
Cc1cc(C)c(C#N)c(N2CCN(c3ccccc3)CC2)n1	15%
CCN1CCCC1CNCc1cc(OC)c(OC)c(OC)c1 (configuration not stated)	-2%
CN(C)CCNc1ccc2nnn3c4ccc(O)cc4c(=O)c1c23	-11%
N#Cc1nc(-c2ccc(OCc3ccc(Cl)cc3)cc2)oc1N1CCC(C(N)=O)CC1	16%&-8%
O=C(CSC1=NS(=O)(=O)c2ccccc2N1)c1ccccc1	1%
COc1cccc(OC)c1C(=O)Nc1ccccc1N1CCCC1	7%
O=C1c2ccccc2S(=O)(=O)N1CC(O)Cn1ccc2ccccc21 (configuration not stated)	-7%

Arranged by formula weight (low to high): part of the list above
SMILES	VDR inhibitor
CCN1C(=O)c2c(C)nc3ccccc3c2C1=O	19%
O=C(CSc1ncnc2ccccc12)N1CCNC1=O	3%
Cc1cc(C)c(C#N)c(N2CCN(c3ccccc3)CC2)n1	15%
CC1CCc2sc(C(=O)NCCCn3ccnc3)cc2C1 (configuration not stated)	-29%
CCN1CCCC1CNCc1cc(OC)c(OC)c(OC)c1 (configuration not stated)	-2%
CN(C)CCNc1ccc2nnn3c4ccc(O)cc4c(=O)c1c23	-11%
COc1cccc(OC)c1C(=O)Nc1ccccc1N1CCCC1	7%
COC(=O)C1C(=O)OC(C)(C)C1C(C)C(=O)c1ccc(C)cc1C (configuration not stated)	10%
C[N+](C)(C)CC[N+]1(C)Cc2c(Cl)c(Cl)c(Cl)c(Cl)c2C1	-8%&16%
Cc1ccc(-c2cnc(C3CC3)o2)cc1S(=O)(=O)Nc1cccc(C#N)c1	4%
CCOC(=O)C(C)On1c(SC(C)C(=O)OCC)nc2ccccc2c1=O (configuration not stated)	4%
Cc1ccc2cccc(NC(=O)c3ccc(-c4cc(Cl)ccc4Cl)o3)c2n1	-8%
CCOc1ccc(NC(=O)CN(C)S(=O)(=O)c2cccc3cccnc23)cc1	11%
N#Cc1nc(-c2ccc(OCc3ccc(Cl)cc3)cc2)oc1N1CCC(C(N)=O)CC1	16%&-8%
CCCOc1ccc(C2c3c(-c4ccccc4O)n[nH]c3C(=O)N2Cc2ccncc2)cc1OCC (configuration not stated)	3%

Remaining list, next part.
SMILES	VDR inhibitor
O=C(N=C1SC2CS(=O)(=O)CC2N1c1ccc(Cl)cc1Cl)C1CCCO1 (configuration not stated)	23%
O=S(=O)(NCC(c1ccco1)S(=O)(=O)c1cccs1)c1ccccc1 (configuration not stated)	8%
CCOC(=O)N1CCN(S(=O)(=O)c2ccc(Br)cc2)CC1	3%
O=C(C[n+]1cc(-c2ccc(Cl)c(Cl)c2)n2c1CCC2)OCc1ccccc1	4%
Cc1ccc(NC(=O)CSc2nc3[nH]ncc3c(=O)[nH]2)cc1Cl	8%
O=C(C1=C[C@H](c2ccc(C(F)(F)F)cc2)C[C@H](OCc2ccc(CO)cc2)O1)N1CCN(Cc2ccccc2)CC1	-9%
O=C(O)Cc1ccc(C(=O)c2ccccc2F)s1	8%
Cc1ccc(C(=O)C(OC(=O)CNC(=O)c2ccc(Cl)cc2)c2ccccc2)cc1 (configuration not stated)	-7%
CCC1CCC(NC(=O)Nc2cccc(OC)c2)CC1 (configuration not stated)	14%
COC(=O)c1ccc(C2C(C(=O)c3cc4ccccc4o3)=C(O)C(=O)N2CCCN(C)C)cc1 (configuration not stated)	8%
COC(=O)CCCNC(=O)OCc1ccc([N+](=O)[O-])cc1	14%
O=CN1CCN(C(=S)NC(=O)c2ccc(Cl)cc2)CC1	22%
COc1cc(Br)cc2cc(C(=O)NCC3CCCO3)c(=O)oc12 (configuration not stated)	0%
CCc1nnc(SCC(=O)NC2CC2)n1CC	18%
CCCCC(=O)NC(c1ccccc1)c1ccc2cccnc2c1O (configuration not stated)	-11%
Cc1ccc(-c2noc(CN(C)C(=O)c3ccoc3C)n2)cc1	-9%
Cn1c(Cc2ccccc2)nnc1SCC(=O)NC1CCCCC1	2%
Cn1c(=O)c2c(ncn2CC(=O)OCC(=O)Nc2ccccc2Cl)n(C)c1=O	-13%
CCC(CO)NCc1ccc(OCC(O)c2ccccc2)c(OC)c1 (configuration not stated)	-12%
FC(F)(F)c1cc(CCN2CCNC[C@@H]2Cc2ccccc2)cc(C(F)(F)F)c1	-5%
CCOC(=O)c1csc(NC(C)=O)n1	-11%
Cc1cc(NC(=O)CN2C(=O)CSc3ccc(S(=O)(=O)N(C)C)cc32)ccc1Br	10%
O=C1CC(c2ccccc2)CC(O)=C1C=Nc1ccc(Cl)cc1 (configuration not stated)	-2%
N#Cc1ccccc1S(=O)(=O)N1CCN(Cc2c(O)ccc3ccccc23)CC1	?
CC[C@@H](C)[C@@H]1CN([C@@H](C)CN2CCC[C@H]2CN2C(N)=NC[C@H]2CC(C)C)C(=N)N1CCc1ccc(Cl)c(Cl)c1	-5%
CCN(CC)c1ccc(/C=C(/C#N)c2nc3ccc(C)cc3[nH]2)c(OC(C)C)c1	27%
CCCCCCCCNS(=O)(=O)CCNCc1ccccc1	-13%
Fc1ccc(C2CCCN2Cc2nc(Cc3ccccc3F)no2)cc1 (configuration not stated)	-6%
COc1ccc2[nH]c3c(Cl)ncnc3c2c1	-3%
Cc1nn(Cc2cccc(C(=O)NCC(C)C)c2)c(C)c1Br	10%
Cc1cccc(C)c1NC(=O)Cn1c(=O)n(CCCC(=O)NCc2ccco2)c(=O)c2sccc21	6%
COc1ccc(/C=N/Nc2cc(C)nc(N3CCOCC3)n2)c(OC)c1	2%
Cc1nc(-c2cccnc2)sc1C(=O)Nc1ccc(F)cc1F	17%
COc1ccc2oc(C(=O)OC(C)C(=O)N3C(C)CCCC3C)c(C)c2c1 (configuration not stated)	12%
CC(C(=O)NCc1ccccc1)N1C(=O)c2ccccc2C1=O (configuration not stated)	-10%
COc1ccc(NC(=O)CN2CCN(Cc3ccc4c(c3)OCO4)CC2)cc1OC	-6%
Cc1ccc(SCC(=O)NNC(=O)CNC(=O)c2ccc(Br)cc2)cc1	-8%
COC(=O)CNC(=O)C1CCCN1C(=O)CNC(=O)OCc1ccccc1 (configuration not stated)	-12%
COc1ccc(CNC(=O)c2ccc3c(c2)N(Cc2cccc(Cl)c2)C(=O)c2ccccc2S3)c(OC)c1	1%
CC(C)(C)C(=O)NC(=S)Nc1ccc(Cc2ccncc2)cc1	-4%
COC(=O)CNc1nc(Cl)nc(N2CCC(C)CC2)n1	-10%
CCC(C)c1ccc(NC(=S)NCCn2cc(Br)cn2)cc1 (configuration not stated)	?
O=[N+]([O-])c1cccc(-c2nc(-c3cccs3)c(-c3cccs3)[nH]2)c1	3%
Cc1ccc(NC(=O)COc2ccc3oc4c(c3c2)CCCC4)nc1	-2%
O=c1c2[nH]c3ccccc3c2ncn1Cc1cccnc1	-18%
O=C(Nc1cccc(F)c1)N1CC[C@@]2(CCCN(C(=O)c3ccncc3)C2)C1	0%
Cc1cc(C)c(-c2c(O)c3c(n(C)c2=O)CC(C)(C)CC3=O)c(C)c1	-7%
O=C1NC(c2ccc(Br)cc2)Oc2ccccc21 (configuration not stated)	-19%
O=S(=O)(NCC(c1ccco1)S(=O)(=O)c1ccccc1)c1cc(F)ccc1F (configuration not stated)	9%
Cn1cc(CN2CCCC(CO)(Cc3ccccc3)C2)c2ccccc21 (configuration not stated)	-10%
(listing goes on)
SMILES	VDR inhibitor
COc1ccc(NC(=O)CSCC(=O)Nc2ccc(S(=O)(=O)N3CCOCC3)cc2)cc1	22%
O=S1(=O)OC(c2ccc(O)cc2)(c2ccc(O)cc2)c2ccccc21	-14%
Cc1cccn2c(CNC3CCCc4ccccc43)c(C(=O)N3CCCCC3)nc12 (configuration not stated)	-6%
Cc1ccsc1/C=C1\Oc2cc(OCC(=O)c3ccccc3)ccc2C1=O	-20%
COc1ccc(S(=O)(=O)NCc2cccnc2)cc1OC	15%
CCCCNC(=S)Nc1ccc([N+](=O)[O-])cc1	-9%
CCc1nnc(NC(=O)CSc2nnc(CNC(=O)c3cc(OC)c(OC)c(OC)c3)o2)s1	-15%
COc1ccc(S(=O)(=O)N(CCc2ccccc2)CC(=O)NC(C)C)cc1	-11%
S=C(Nc1ccccc1)Nc1ccc(Cl)cn1	-14%
Cc1nc2ccc(NC(=O)NCCCO)cc2s1	3%
CCn1c(SCC(=O)NCc2ccc3c(c2)OCO3)nnc1-c1cccs1	-2%
Cc1cc(C)cc(C(=O)NCCc2sc(-c3ccc(F)cc3)nc2C)c1	12%
CCCN(CCC)C(=O)Cn1ccc(=N)c2ccccc21	21%
CCc1ccc(-c2c(C)sc(NC(C)=O)c2C(N)=O)cc1	-13%
Cc1n[nH]c(C)c1CCNC(=O)C1CCC(=O)N(Cc2ccccc2F)C1 (configuration not stated)	11%
Cc1cc(C)c(N(C(=O)CN2C(=O)c3ccccc3S2(=O)=O)C(C(=O)NCC2CCCO2)c2ccc(F)cc2)c(C)c1 (configuration not stated)	-14%
Cc1ccc(-c2nc(CS(=O)(=O)CC(=O)N3CCOCC3)c(C)o2)cc1	8%
C=CCn1c(-c2sc(-c3ccccc3)nc2C)n[nH]c1=S	-1%
CCCCNC(=O)c1onc(CSc2ccc(C)c(C)c2)c1C(=O)O	-13%
CCOC(=O)CC(NC(=O)c1cccc2c1C(=O)N(Cc1cccnc1)C2)c1ccc(OCC)c(OC)c1 (configuration not stated)	9%
Cc1c(C(=O)NCc2ccc3c(c2)OCO3)oc2ccccc12	4%
CC(C)(C)c1ccc2c(c1)OC(C(=O)N/N=C\c1ccc(-c3cccc(C(=O)O)c3)o1)CO2 (configuration not stated)	?
COc1ccc(C2C=C(c3ccc(C)c(C)c3)Nc3ncnn32)c(OC)c1OC (configuration not stated)	-11%
Cc1cc(C(C)(C)C)ccc1Oc1cccc2c1S(=O)(=O)N(C1CCCC1)CC(COCc1ccccc1)O2 (configuration not stated)	-1%
O=C1CC(N2CCc3ccccc32)C(=O)N1c1ccc(F)cc1 (configuration not stated)	1%
Cc1cnc(C(=O)N2CCN(S(=O)(=O)c3ccc(F)c(F)c3F)CC2)cn1	-9%
COc1ccc(S(=O)(=O)N(CC(=O)N2CCN(c3ccccc3)CC2)c2ccccc2)cc1	9%
COc1ccc(/C=C/CN2CCN(Cc3ccc(F)cc3)C(CCO)C2)cc1 (configuration not stated)	-7%
Cc1ccc2oc(-c3cc(NC(=O)Cc4ccccc4)ccc3Cl)nc2c1	-6%
COc1cc(C(=O)Nc2cc(Cl)ccc2C)c(-n2cnnn2)cc1OC	-9%
Cc1ccn2cc(-c3ccc4c(c3)NC(=O)CO4)nc2c1	-21%
O=C(NCCC(=O)N1CCN(S(=O)(=O)c2ccc(Cl)cc2)CC1)Nc1ccccc1	-5%
O=C(Nc1ccccc1)Nc1cc(S(=O)(=O)N2CCOCC2)ccc1N1CCCC1	-11%
CC(C)CNC(=S)Nc1ccc(F)cc1	2%
Cc1sc(NC(=O)c2ccco2)c(CN2CCN(c3ccccn3)CC2)c1C	2%
O=C(NCc1ccccn1)c1ccc(NS(=O)(=O)c2cccc([N+](=O)[O-])c2)cc1	2%
C=CCc1cc(CN2CC(C)OC(C)C2)c(O)c(OC)c1 (configuration not stated)	-1%
CN(C(=O)c1ccc(Cl)cc1)C1CCS(=O)(=O)C1 (configuration not stated)	-16%
CC(=O)c1cccc(OCc2cc(C(=O)N3CC4C[C@@H]5CC3C[C@H](C4)C5)no2)c1	11%

Screening results deposited in PubChem by National Center for Advancing Translational Sciences (NCATS).
